VACV Venus inh: qHTS for Stage-Specific Inhibitors of Vaccinia Orthopoxvirus: Venus Reporter Primary qHTS; Vaccinia virus Venus reporter expression, fluorescence; AID 720580, 2013; 0.46% of 330,000 active; Potency, µM (doses to about 36.5 µM), for the others: at the top dose activity change, negative = inhibition, usual class: inhibitors; active means well fitted inhibition curve with a large enough effect; inconclusive means small, poorly fitted or top-dose-only effect; inactive means no such curve, though single readings can be large or run the other way; tested in A549 cells; also: nearly all actives have a fitted effect of over 30% in size; inactives centre near -10
VACV mCherry inh: qHTS for Stage-Specific Inhibitors of Vaccinia Orthopoxvirus: mCherry Reporter Primary qHTS; Potency, µM (titrated, usually from 36.5 µM), for the others: at the highest dose activity change, negative = inhibition, actives largely listed as inhibitors; 0.63% of 310,000 active; Vaccinia virus mCherry reporter infection, fluorescence; about a quarter of the inactives have no number; AID 720579, 2013; active = well fitted inhibition curve with a large enough effect; inconclusive = small, poorly fitted or top-dose-only effect; inactive = no such curve, though single readings can be large or run the other way; tested in A549 cells; also: nearly all actives have a fitted effect of over 35% in size; inactives centre near -10
* = called active by the depositor; i = inactive; ? = inconclusive; · = not tested or not shown; & = joins results of further samples; [ ] = remark or other dose. % is scaled to controls: 0 for no effect and ±100 for the full control effect; potency is read from the fitted curve at half-maximal effect.

#	canonical_smiles	VACV Venus inh	VACV mCherry inh
1	CCc1ccc(C(=O)c2cnc3ccc(C)cc3c2S(=O)(=O)c2ccc(OC)cc2)cc1	-6%	-19%
2	NS(=O)(=O)c1ccc(CCN2C(=O)/C(=C\c3ccc(Cl)cc3)SC2=S)cc1	-5%	i
3	CCOc1cc(NC(=O)CCl)c(OCC)cc1NC(=O)CCl	1%	-12%
4	CCNC(=O)C1(C)CCN(C(=O)c2ccc(OC)cc2)C1 (centres undefined)	6%	i
5	CC(C)OP(=O)(OC(C)C)C(NC(=O)c1ccccc1Br)C(N)=O (centres undefined)	1%	-1%
6	O=C(NNC(=O)c1ccc[nH]1)c1cc(Cl)cc(Cl)c1	4%	-11%
7	CC1=CN2CC(O)CN=C2C=C1 (centres undefined)	-6%	-5%
8	Cc1ccc(C)c(Oc2cc(NC(=O)CCCn3nc(C)c([N+](=O)[O-])c3C)cc([N+](=O)[O-])c2)c1	?	?
9	CC(C)(C)NC(=O)NC(=O)COC(=O)Cc1coc2ccc3ccccc3c12	-7%	-15%
10	Cc1cccc(NC(=O)Cn2nnc(C(=O)Nc3ccc(F)c(Cl)c3)c2N)c1	-8%	i
11	CCc1cc2c(-c3ccccc3)cc(=O)oc2cc1OC(C)C(=O)NCC1CCC(C(=O)O)CC1 (centres undefined)	-9%	-17%
12	O=C(c1ccc2ccccc2n1)N1CCN(c2ccccc2Cl)CC1	-16%	0%
13	S=C(NCCc1ccccc1)NCCc1ccccc1	-11%	-19%
14	O=C(CN1C(=O)c2ccccc2C1=O)NC1CCC(O)CC1 (centres undefined)	-8%	-7%
15	CC(=O)Nc1ccc(NC(=O)C(C)OC(=O)CNC(=O)c2cccs2)cc1 (centres undefined)	-16%	i
16	O=C(c1ccc(CSc2nc3ccncc3n2Cc2ccc(F)cc2)cc1)N1CCCCCC1	-17%	-22%
17	C=CCN1C(=O)S/C(=C/c2ccc(Sc3nc4ccccc4[nH]3)o2)C1=O	-23%	?
18	COc1cccc(Nc2nnc(SCC(=O)N(CC(C)C)CC(C)C)s2)c1	-24%	·
19	Cc1nn(C)c2c1c(C(F)(F)F)cc(=O)n2CC(=O)NCCC(C)C	10%	-3%
20	COC(=O)CNC(=O)CSc1nnc(-c2ccc(OC)cc2)n1CC(C)C	-3%	i
21	CCS(=O)(=O)c1nn2c(N)c(/C=C3/C=CC(=O)C(OC)=C3)c(=O)nc2s1	35%[activator]	-3%
22	Cc1ccc(C2(C)NC(=O)N(CC(=O)Nc3cc(S(=O)(=O)N4CCCCC4)ccc3OC(C)C)C2=O)cc1 (centres undefined)	-18%	-13%
23	CC(C)CC(N)C(=O)NC(C)C(=O)O (centres undefined)	0%	i
24	CC(C)OCCCNC(=O)CNC(=O)c1cccs1	-3%	i
25	COc1ccc(-c2nc(-c3cccnc3)no2)cc1OC	1%	-12%
26	COC(=O)c1ccccc1NC(=O)CNc1cc(Cl)ccc1N1CCOCC1	-20%	·
27	CCc1nnc(NC(=O)CSc2nnc(-c3cccnc3)n2CC)s1	-10%	-16%
28	CC(=O)NC(c1ccccc1)c1nc(-c2ccc(Cl)cc2)cs1 (centres undefined)	-9%	14%
29	COc1ccc(-c2nc3cc(C(C)C)ccc3o2)cc1NC(=O)c1ccccc1[N+](=O)[O-]	-27%	?
30	CCOc1ccc(CCNC(=O)c2oc(=O)c3ccccc3c2-c2ccc(C)cc2)cc1OCC	-1%	-3%
31	CCOC(=O)C1CCCN(C(=O)c2ccc(Cl)c(S(=O)(=O)N3CCCCC3)c2)C1 (centres undefined)	-13%	0%
32	CC(=O)SCCC(=O)Nc1ccccc1	-1%	0%
33	COC(=O)/C(=C/c1cccnc1)NC(=O)c1ccccc1	-11%	-9%
34	COC(C[C@H](O)C[C@@H](O)COCc1ccccc1)OC	-16%	i
35	CCc1ccc(/C=C2\SC(=S)N(CCCC(=O)Nc3nccs3)C2=O)cc1	-7%	i
36	CC1(C)C2CC[C@]3(C)C(CC=C4[C@@H]5C[C@@](C)(CO)CC[C@]5(C(=O)O)CC[C@]43C)[C@@]2(C)CC[C@@H]1O (some centres undefined)	-9%	-14%
37	COC(=O)C1CCN(CC(=O)NC(=O)Nc2ccccc2F)CC1	-7%	-2%
38	O=C(NC(=S)NNC(=O)[C@H]1C[C@@H]1c1ccccc1)c1cccc(F)c1	-9%	-6%
39	C[C@@H]1CN([C@@H](C)CO)C(=O)Cc2cc(NC(=O)Nc3cccc4ccccc34)ccc2O[C@@H]1CN(C)Cc1ccc(C(F)(F)F)cc1	?	?
40	CCCOc1cccc(C(=O)Nc2cccc(NC(=O)c3ccc(C(C)(C)C)cc3)c2)c1	11%	-4%
41	Clc1ccc(Cc2nnc(-c3cccs3)o2)cc1	-4%	-8%
42	COc1ccc(-n2nc(C(=O)N3CCN(c4ccccc4OC)CC3)c3c4ccccc4n(C)c3c2=O)cc1Cl	-7%	-13%
43	C[C@H](NC(=O)[C@H]1N2C(=O)c3ccccc3C2SC1(C)C)C(=O)NCc1ccncc1 (some centres undefined)	-8%	i
44	O=C(COC(=O)c1ccc([N+](=O)[O-])s1)NCc1ccccc1	-12%	-19%
45	CC(=O)Nc1ccc(S(=O)(=O)NCC(=O)OC(C)c2ccccc2Cl)cc1 (centres undefined)	-11%	-5%
46	CCOC(=O)Cn1nnnc1CN(Cc1ccccc1)Cc1cc2cc(CC)ccc2[nH]c1=O	-12%	i
47	COc1ccc(C(=O)Nc2nc3nc(-c4ccccc4)cc(=O)n3[nH]2)cc1	0%	4%
48	O=C(NCC1COc2ccccc2O1)c1ccco1 (centres undefined)	1%	-10%
49	CCC(=O)N1CC(=O)Nc2ccc(Br)cc2C1c1ccccc1 (centres undefined)	-16%	i
50	C[C@@H]1CN([C@@H](C)CO)C(=O)CCCn2nncc2CO[C@H]1CN(C)Cc1cccc2c1OCCCO2	4%	-1%

4 compounds drawn at random from the list so far, as already listed:
#	canonical_smiles	VACV Venus inh	VACV mCherry inh
46	CCOC(=O)Cn1nnnc1CN(Cc1ccccc1)Cc1cc2cc(CC)ccc2[nH]c1=O	-12%	i
44	O=C(COC(=O)c1ccc([N+](=O)[O-])s1)NCc1ccccc1	-12%	-19%
26	COC(=O)c1ccccc1NC(=O)CNc1cc(Cl)ccc1N1CCOCC1	-20%	·
33	COC(=O)/C(=C/c1cccnc1)NC(=O)c1ccccc1	-11%	-9%

The listing picks up, starting 7 compounds before the break.
#	canonical_smiles	VACV Venus inh	VACV mCherry inh
44	O=C(COC(=O)c1ccc([N+](=O)[O-])s1)NCc1ccccc1	-12%	-19%
45	CC(=O)Nc1ccc(S(=O)(=O)NCC(=O)OC(C)c2ccccc2Cl)cc1 (centres undefined)	-11%	-5%
46	CCOC(=O)Cn1nnnc1CN(Cc1ccccc1)Cc1cc2cc(CC)ccc2[nH]c1=O	-12%	i
47	COc1ccc(C(=O)Nc2nc3nc(-c4ccccc4)cc(=O)n3[nH]2)cc1	0%	4%
48	O=C(NCC1COc2ccccc2O1)c1ccco1 (centres undefined)	1%	-10%
49	CCC(=O)N1CC(=O)Nc2ccc(Br)cc2C1c1ccccc1 (centres undefined)	-16%	i
50	C[C@@H]1CN([C@@H](C)CO)C(=O)CCCn2nncc2CO[C@H]1CN(C)Cc1cccc2c1OCCCO2	4%	-1%
51	COc1ccc(CCNCC(O)COc2cccc(Br)c2)cc1 (centres undefined)	?	?
52	COc1cc(C(=O)NNC(=O)c2cccn2C)cc(OC)c1OC	-10%	-13%
53	Cc1ccc(-n2ncc(C(=O)NCCN3CCc4ccccc4C3)c2C2CCN(C(=O)OC(C)(C)C)CC2)cc1C	-22%	-12%
54	C=CCn1cc(C(=O)OC)c(=O)c2cc(S(=O)(=O)N(CC)CC)ccc21	-15%	i
55	Cc1cccc(CNc2ncncc2-c2cccc(NS(C)(=O)=O)c2)c1	-14%	-27%
56	Cc1noc(C)c1CN1C(=O)NC2(CCc3ccccc3C2)C1=O (centres undefined)	-2%	-7%
57	CCN(c1ccccc1)S(=O)(=O)c1ccc(OC)c(NC(=O)c2cc(Cl)ccn2)c1	-8%	-10%
58	CCC(C)[C@H]1CNCCN1CCc1cccc(F)c1 (some centres undefined)	-2%	4%
59	Cc1nn(C(C)C(=O)Nc2ccccc2Cl)c(=O)c2nn(-c3ccccc3)c(C)c12 (centres undefined)	-16%	-4%
60	Cc1ccc(C)c(OCc2cc(C(=O)NC3CCOC(C)(C)C3)no2)c1 (centres undefined)	-13%	-23%
61	CC(CNC(=O)Cn1ccc2cc(S(=O)(=O)N3CCCCCC3)ccc21)c1ccccc1 (centres undefined)	-17%	-23%
62	COC(=O)c1ccc2nc(-c3ccco3)c(Cc3ccc(C)cc3)n2c1	7%	7%
63	O=C(Nc1nnc(SCc2cccnc2)s1)C1CC(=O)N(c2ccccc2)C1 (centres undefined)	-9%	-9%
64	CCCCCC(=O)Nc1ccc(N2CCN(C(=O)CCC)CC2)cc1	-7%	·
65	Cc1nc(-c2ccccn2)sc1C(=O)Nc1ccc(F)cc1F	-3%	-9%
66	CC(C)NC(=O)c1cc(C2CCCCN2C(=O)c2ccccc2)on1 (centres undefined)	-5%	i
67	O=C(COC(=O)CCC(=O)c1ccc(F)cc1)Nc1ccc2[nH]c(=O)[nH]c2c1	-12%	-20%
68	CCN(CC)C(=O)C1CCCN(c2ncnc3onc(C)c23)C1 (centres undefined)	-12%	-14%
69	CC(C)(C)c1ccc(S(=O)(=O)NC(=O)C2(C)CCN2C(=O)Cc2ccc(Cl)cc2Cl)cc1 (centres undefined)	8%	i
70	O=C(C1CCCN(S(=O)(=O)c2cccc3nonc23)C1)N1CCN(c2ccccc2)CC1 (centres undefined)	-19%	-19%
71	CCC(=O)N1Cc2cc(C(=O)Nc3nccs3)nc(-c3cccc(-c4ccccc4OC)c3)c2[C@H]1CCO	-12%	-5%
72	O=C(CSc1nccn1Cc1ccc(F)cc1)Nc1nc2ccccc2s1	-6%	-15%
73	COc1ccc2c(c1)CCc1cn3nc(C)cc3nc1-2	-18%	-28%
74	COC(=O)c1cccc(C(=O)N2CCc3c(cnc(C)c3CNC(=O)/C=C/c3cccs3)C2)c1	-10%	-15%
75	O=C(NCc1ccc(N2CCCC2=O)cc1)Nc1ccccc1	-15%	i
76	COC(=O)C1=C(C(=O)OC)[C@@H]2N(C)c3ccccc3[C@@]23C[C@@H](CO)N(C(=O)NCCBr)C3=N1	-3%	i
77	O=c1[nH][nH]c2cc(=O)n(-c3ccc(Cl)cc3)nc12	-13%	i
78	Cc1ccccc1C(=O)Nc1ccccc1NC(=O)c1ccccc1C	3%	-8%
79	c1ccc(Nc2nc(NCc3ccco3)nc3nccnc23)cc1	-15%	-11%
80	Cc1ccc(N2CCN(CCCCN3C(=O)C4CCCN4C3=O)CC2)cc1 (centres undefined)	-9%	-1%
81	COCc1cc(=O)[nH]c(=S)[nH]1	-1%	i
82	O=C1C=C(c2ccc(-c3ccccc3)cc2)C[C@@H](c2ccc(Cl)cc2)C1	-28%	?
83	Cc1ccc(NC(=O)CN2Cc3ccccc3C2=O)c(C)c1	-7%	-15%
84	CCCCN1C(=O)C(=O)N(CC(=O)Nc2sc(CC)cc2C(=O)OCC)C1=O	-6%	?
85	Cc1cccnc1NC(=O)c1c(O)c2ccccc2n(C)c1=O	-9%	·
86	Cc1cccc(N(C)c2ccc3cc(S(=O)(=O)N4CCCC4)ccc3n2)c1	-8%&-2%	-14%&-7%
87	COc1cc(OC)c(C2CC(=O)N3CN(c4ccc(C)cc4)CSC3=C2C#N)cc1OC (centres undefined)	1%	i
88	Cc1ccc2c(=O)c(C(=O)NCc3cccs3)c[nH]c2c1	-27%	?
89	c1ccc(-n2ncc3c2ncn2nc(CSc4nc5ccccc5s4)nc32)cc1	-7%	i
90	Cc1cc(C)n2c(NCc3ccccc3)c(CC(C)C)nc2n1	19%	1%
91	CCc1ccc(NC(=O)CN(c2cc(C)cc(C)c2)S(=O)(=O)c2c(C)[nH]c(=O)[nH]c2=O)cc1	9%	-8%
92	CC(C)C(=O)NNC(=O)CSc1nnnn1C(C)C	-6%	i
93	Cc1cccc(NC(=O)CSc2nc3ccc(NC(=O)COc4ccccc4F)cc3s2)c1	-27%	-1%
94	CC(N)(COP(=O)(O)O)C(=O)O (centres undefined)	-5%	-14%
95	COC(CNC(=O)c1cn(C)c2ccc(S(=O)(=O)N(C)C3CCCCC3)cc2c1=O)OC	?	?
96	COC(=O)c1c(SC)nc2ccccc2c1OCc1ccc(C)cc1	-5%	-10%
97	CC(C)[C@H](NC(=O)OCc1ccccc1)C(=O)OCC(=O)Nc1ccc(N2CCOCC2)cc1	-1%	-6%
98	COc1ccc(S(=O)(=O)Nc2ccc3c(c2)CC(=O)N([C@@H](C)CO)C[C@H](C)[C@@H](CN(C)S(=O)(=O)c2ccc(F)cc2)O3)cc1	-15%	i

Filtered by structure: those above with bromine (4)
#	canonical_smiles	VACV Venus inh	VACV mCherry inh
5	CC(C)OP(=O)(OC(C)C)C(NC(=O)c1ccccc1Br)C(N)=O (centres undefined)	1%	-1%
49	CCC(=O)N1CC(=O)Nc2ccc(Br)cc2C1c1ccccc1 (centres undefined)	-16%	i
51	COc1ccc(CCNCC(O)COc2cccc(Br)c2)cc1 (centres undefined)	?	?
76	COC(=O)C1=C(C(=O)OC)[C@@H]2N(C)c3ccccc3[C@@]23C[C@@H](CO)N(C(=O)NCCBr)C3=N1	-3%	i

From PubChem
